# TAR Tat displ: HIV-1 TAR-Tat binding disruption | z-score (concentration not given with the values) | HIV-1 TAR RNA, Tat peptide displacement FRET; hits give high values | AID 1259389 | hit rate 0.6% among 100,000;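 note: score is relative to mean and SD of negative controls; some compounds called inactive have numbers as strong as hits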
# CDC25B CDK2 inh: human CDC25B-CDK2/CyclinA binding inhibition | P30305+P24941 | z-score (concentration not given with the values) | HTRF CDC25B-CDK2/CyclinA binding, anti-His/anti-Flag; hits give high values | hit rate 0.72% among 94,000;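 note: score is relative to mean and SD of negative controls; strong numbers were not always called active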
# Active calls of the source: *; · = no result given.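 Rule for the calls: active = z-score from 3 up in half or more of its runs; inactive = the rest.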
SMILES	TAR Tat displ	CDC25B CDK2 inh
CCOC(=O)c1[nH]c2ccccc2c1CCC(=O)O	-0.11	-1.6
CSc1cccc(NC(=O)Cn2cnc(S(=O)(=O)N3CCOCC3)c2)c1	-0.25	·
Cc1cc2c3c([nH]c2cc1S(=O)(=O)Nc1cccc(C)c1C)CC(C)(C)CC3=O	0.55	·
O=C1c2cccnc2C(O)N1c1ccccc1 (centres undefined)	-0.4	1.4
CN1c2ccsc2C(O)=C(C(=O)Nc2cccc(Cl)c2)S1(=O)=O	·	1.9
NC(=O)CSc1nn2c(=O)c(Cc3ccccc3)nnc2s1	2.6	-1.5
CC1CCN(S(=O)(=O)c2ccc3nc(Nc4cc(F)ccc4F)ccc3c2)CC1	1	·
CCc1c(C)nc2ncnn2c1Nc1ccc(C)c(C)c1	0.52	-1.3
Cc1nc(Oc2ccccc2)c2oc3ccccc3c2n1	0.64	0.85
O=C(Nc1ccc2c(c1)OCCO2)c1cc2c(s1)-c1ccccc1OC2	-0.38	-0.12
O=C(Cn1cc(C(=O)C2CCCCC2)c2ccccc21)NC1CCCCC1	-0.56	0.42
CCOC(=O)c1c(C)[nH]c(C)c1S(=O)(=O)Nc1ccc2c(c1)OCO2	0.45	·
OCCNC(=S)Nc1ccccc1-c1ccccc1	·	-1.8
O=C(NCc1cccnc1)c1ccc(CN2CC(=O)N3CCCC3C2=O)cc1 (centres undefined)	1.9	·
CC1CCCCC1NS(=O)(=O)c1ccc2c(c1)CC(C)N2C(=O)C1CCC1 (centres undefined)	-1.6	·
COc1ccc(-c2noc(NCc3ccccc3F)n2)cc1OC	-0.76	·
CCOC(=O)c1c(N)n(CCc2ccccc2)c2nc3ccccc3nc12	0.65	0.32
CCCNC(=O)CSc1ncc(C(=O)OCC)c(N)n1	1.3	·
CC1CCc2c(sc3nc(CCC(=O)N4CCCC4)[nH]c(=O)c23)C1 (centres undefined)	0.89	·
N#Cc1c(C(F)(F)F)cc(-c2cccs2)nc1OCC(=O)c1ccccc1	·	0.26
CSc1ccccc1NC(=S)Nc1ccc(Cl)cc1	·	-1.5
Cc1nc(N(C)C)cc(N2CCN(S(=O)(=O)c3ccc(Cl)cc3)CC2)n1	0.61	-1.6
O=C1COc2cc(S(=O)(=O)CCC(=O)NC3CCCCC3)c(Cl)cc2N1	0.18	·
C#CCOC1(C)COC(C)(OCC#C)CO1 (centres undefined)	·	-1.8
CSc1ccc(CNC(=O)c2cc(-c3cccnc3)nc3ccc(Cl)cc23)cc1	-0.23	·
O=C(NCc1ccc2c(c1)OCO2)c1ccc2c(c1)nc1n2CCCCC1	0.93	·
COc1ccc(-c2nc(-c3cc(OC)c(OC)cc3OC)[nH]c2-c2ccc(OC)cc2)cc1	·	1.3
Fc1cccc(Nc2nc3ccccc3c3nncn23)c1	1.6	-0.75
CNCc1cccc(Oc2nnnn2-c2ccccc2)c1	1.3	·
O=C(NCCCN1CCN(c2ccc(F)cc2)CC1)Nc1ccccc1	·	-1.3

# Individual results from the results shown:
# For TAR Tat displ, `CC1CCc2c(sc3nc(CCC(=O)N4CCCC4)[nH]c(=O)c23)C1` (centres undefined) is entered as 0.89
# For TAR Tat displ, `CCOC(=O)c1c(N)n(CCc2ccccc2)c2nc3ccccc3nc12` is entered as 0.65

# Following part:
SMILES	TAR Tat displ	CDC25B CDK2 inh
O=C(NCc1ccccn1)c1cccc(C(F)(F)F)n1	·	-1.7
CSc1nn(CC(=O)NCCc2ccccc2)c2nc3c(c(=O)n12)C(C)(C)Cc1ccccc1-3	-0.15	-0.88
CN1CCN(c2ncc3c(n2)CCN(Cc2ccccc2Cl)C3)CC1	1.1	·
O=C(C1CCN(c2nn3c(=O)c4c(nc3s2)CCCC4)CC1)N1CCC(N2CCCCC2)CC1	2.6	·
NC(=O)C1CCN(C(=O)C2CC(c3cccc(Br)c3)=NO2)CC1 (centres undefined)	-0.28	-0.96
Cc1ccc(-c2nc3n(n2)C(=O)CC(c2ccc4c(c2)OCO4)S3)cc1 (centres undefined)	1.2	-0.47
CCc1c(COc2ccc(F)c(Cl)c2)csc1C	1.6	·
O=C(NCc1csc(-c2ccccc2)n1)[C@H]1CSCN1C(=O)CCC1CCCC1	0.89	·
Cc1nn(S(=O)(=O)c2ccccc2)c(C)c1Sc1nnnn1-c1ccccc1	·	-1.4
CCOc1ccccc1C1C2=C(Nc3c1c(=O)[nH]c(=O)n3CCOC)c1ccccc1C2=O (centres undefined)	4.2	-0.62
O=C1N(c2ccc(Cl)cc2)C(c2ccc(Cl)cc2)N2CCCN12 (centres undefined)	0.83	-0.93
Clc1ccccc1-n1ncc2c1ncn1nc(Cc3ccccc3)nc21	0.98	-5.1
CCCc1nn2c(=O)cc(CN3CCc4ccccc43)nc2s1	-0.18	0.73
CCOc1cccc(C(Nc2ccccn2)c2ccc3ccc(C)nc3c2O)c1O (centres undefined)	-0.49	-1.9
COc1ccc(Br)cc1C1CC(=O)N2CN(C)CSC2=C1C#N (centres undefined)	3.3	5
Cc1ccc(-c2c(NCc3ccccn3)c(=O)c2=O)cc1C	2.1	·
O=C(CCCn1c(=O)c2cccn2c2cccnc21)NCCCN1CCOCC1	0.2	·
O=C(NC1CC1)c1ccc(Cn2c(SCc3ccc(F)cc3)nc3cccnc32)cc1	0.32	·
CC(C)NCCn1c(-c2ccc(Br)cc2)cn2c3ccccc3nc12	0.47	-1.1
CCCCc1nc(SCC(=O)Nc2nnc(C)s2)c2c(=O)n(C)c(=O)n(C)c2n1	0.6	·
CO[C@@]1(NC(=O)CSCC#N)C(=O)N2C(C(=O)O)=C(CSc3nnnn3C)CSC21 (some centres undefined)	1.7	·
Cc1nc2sc(C(c3ccccc3)N3CCN(CCO)CC3)c(O)n2n1 (centres undefined)	·	-0.31
CCc1nc2oc(C(=O)c3ccccc3)c(N)c2c2c1COC(C)(C)C2	-0.08	-0.26
COc1ccccc1-c1noc(CSc2nc(N)cc(=O)[nH]2)n1	2.8	1.6
O=C(Nc1cnc2ccccc2c1)c1cc2c(s1)-c1ccccc1OC2	1.9	-0.86
CSc1nsc(SC)c1C(=O)NCc1ccc2c(c1)OCO2	·	-0.49
CCOc1ccccc1C(=O)NC(Nc1ncccn1)(C(F)(F)F)C(F)(F)F	·	0.54
Cc1ccc2oc3c(c(=O)c2c1)C(c1ccc(O)cc1)N(CCCN(C)C)C3=O (centres undefined)	0.79	0.59
Cc1ccccc1CSCc1nc2ccccc2[nH]1	2.2	-1.2
Fc1ccc(-c2nc(-c3ccccc3)no2)c(Cl)c1	·	-1.6

# Among those listed so far, two contain a COOH group.
SMILES	TAR Tat displ	CDC25B CDK2 inh
CCOC(=O)c1[nH]c2ccccc2c1CCC(=O)O	-0.11	-1.6
CO[C@@]1(NC(=O)CSCC#N)C(=O)N2C(C(=O)O)=C(CSc3nnnn3C)CSC21 (some centres undefined)	1.7	·

# A stretch taken from the entries so far, as a working copy:
SMILES	TAR Tat displ	CDC25B CDK2 inh
Cc1ccccc1CSCc1nc2ccccc2[nH]1	2.2	-1.2
Fc1ccc(-c2nc(-c3ccccc3)no2)c(Cl)c1	·	-1.6

# Later entries.
SMILES	TAR Tat displ	CDC25B CDK2 inh
COc1ccccc1OCCn1c(C(F)(F)F)nc2ccccc21	0.85	-0.64
Cn1cc(Cc2nnc(NC(=O)C3CCCN(S(=O)(=O)N4CCCC4)C3)s2)c2ccccc21 (centres undefined)	0.23	·
COC(=O)CSCC(=O)Nc1ncc2c(n1)CC(C)(C)CC2=O	0.62	-1.1
Cc1cccc2nc(-c3ccco3)c(Nc3ccc4c(c3)OCO4)n12	·	1.9
CC1=C(c2ccc(F)cc2)S(=O)(=O)NC1=NCCCN1CCCCC1	0.22	·
Cc1ccc(-c2noc(-c3cccnc3NCCc3ccccc3)n2)cc1	0.59	-0.49
CC1CCN(C(=O)Cn2cc(SCC(=O)N3CCc4ccccc43)c3ccccc32)CC1	-0.13	·
Cn1nc(C(=O)N2CCN(c3ccc(F)cc3)CC2)c2c1-c1ccccc1S(=O)(=O)C2	1.5	-2.3
COc1cc(C2NC(C(=O)O)CS2)ccc1OCc1ccc(C)cc1 (centres undefined)	-0.93	-0.38
CCc1nnc2c(N(C)c3cccc(C)c3)nc3ccccc3n12	1.1	·
COc1cc(NC(=O)CN2C(=O)c3ccccc3S2(=O)=O)c(OC)cc1Cl	·	-0.44
CN(C(=O)CSc1nnc(-c2ccncc2)o1)c1ccc(F)cc1	2.2	-0.42
COc1cccc(C(Nc2cc(C)ccn2)c2ccc3cccnc3c2O)c1 (centres undefined)	-0.26	-3.7
Cc1ccc(S(=O)(=O)NC(=O)Nc2scc(C)c2C(=O)c2ccccc2)cc1	·	-1.6
CCc1cc2c(cc3n2CC(C)(C(=O)NC2CCCCC2)N(Cc2cccs2)C3=O)s1 (centres undefined)	1.4	-1.8
C=CCOc1ccc(/C(O)=C2\C(=O)C(=O)N(CCN(C)C)C2c2ccccc2F)c(C)c1 (centres undefined)	0.48	0.23
CCOC(=O)N1CCN(S(=O)(=O)c2ccc(Br)cc2)CC1	2.7	-0.94
CCOC(=O)c1sc2nc(C)n(CC(N)=O)c(=O)c2c1C	·	1.4
Cc1cc(C)c(C#N)c(N2CCN(c3ccccc3)CC2)n1	·	-0.33
CC(C)=NNc1c(Cl)cc(Cl)cc1Cl	·	-0.16
O=C1c2ccccc2S(=O)(=O)N1CC(O)Cn1ccc2ccccc21 (centres undefined)	0.22	-1.8
O=C(CSC1=NS(=O)(=O)c2ccccc2N1)c1ccccc1	0.85	·
CC(C)n1nnc2cc(S(=O)(=O)N(C)CC(=O)O)ccc21	2.1	1
O=C(CSc1nc(-c2ccccc2)no1)N1CCNC1=O	1.1	-0.17
O=C(Oc1cccc(F)c1)c1ccc(Oc2cc(Cl)cc(Cl)c2)o1	·	-0.91
Clc1cccc(-c2nnc3sc(-c4cccnc4)nn23)c1	0.07	-1.1
COCCN(CCc1ccncc1)S(=O)(=O)c1csc(C(N)=O)c1	1.1	·
O=C(NC1CC1)C1COc2ccccc2C1 (centres undefined)	0.49	·
O=C1CCSc2ccc(S(=O)(=O)N3CCC(Cc4ccccc4)CC3)cc2N1	-0.11	·
Cc1cc(Nc2cccc(C(F)(F)F)c2)n2nnnc2n1	·	-0.58

# Further entries
# Values in the order: TAR Tat displ	CDC25B CDK2 inh
CCOC(=O)C1=C(C)NC2=C(C(=O)CC(C)(C)C2)C1c1cc(Br)c(C)s1 (centres undefined)
  3	0.49
O=c1ccc(-c2ccc(S(=O)(=O)Nc3cccc(F)c3)s2)n[nH]1
  0.78	·
CC1(C)Cc2nc3oc4c(NCC5CCCO5)ncnc4c3cc2CO1 (centres undefined)
  0.15	·
CCSC1=C(C#N)C(c2ccc(OC)c(OC)c2)CC(=O)N1 (centres undefined)
  -1.1	0.09
CC(=O)N1c2ccc(S(=O)(=O)N3CCCC3)cc2CC1C(=O)NCCCN1CCOCC1 (centres undefined)
  0.67	·
CC(Oc1ccc(F)cc1)C(=O)Nc1onc2c1CCCC2 (centres undefined)
  0.75	-1.4
N[C@@H](C(=O)N[C@@H]1C(=O)N2C(C(=O)O)=C(CSc3cn[nH]n3)CS[C@H]12)c1ccc(O)cc1 (tested in a mixture with another compound)
  -0.78	·
O=C(CSc1nc2ccccc2o1)Nc1ccc2c(c1)OCO2
  0.64	-2.8
O=C(NC1CCCCC1)c1[nH]nc2c1CCc1ccccc1-2
  -0.24	·
COc1ccc(NS(=O)(=O)c2cc(-c3onc(C)c3C)ccc2OC)cc1Cl
  -1	·
Nc1cccnc1NCc1ccc(F)cc1
  -4.2	7.6
O=S1(=O)c2ccccc2NC(c2ccccc2Br)N1Cc1ccccc1 (centres undefined)
  ·	-1.8
Cc1c(C(=O)Nc2ccc(Cl)cc2)sc2nc(C(F)(F)F)nn12
  ·	-2
CCOC(=O)c1csc(NC(C)=O)n1
  ·	-1.9
Cc1ccc(CSCC2COC(c3cccs3)=N2)cc1 (centres undefined)
  1.2	·

# Brought forward from above: two entries, then new ones.
# Values in the order: TAR Tat displ	CDC25B CDK2 inh
CCOC(=O)c1csc(NC(C)=O)n1
  ·	-1.9
Cc1ccc(CSCC2COC(c3cccs3)=N2)cc1 (centres undefined)
  1.2	·
Cc1ccc(C(=O)c2cc(/C=C/C(=O)NO)n(C)c2)cc1
  2.3	·
CCOc1ccc(C2C(C(=O)OCc3ccccc3)=C(C)NC3=C2C(=O)CC(C)(C)C3)cc1OC (centres undefined)
  1.2	-0.51
Cc1csc2nc(-c3ccc(NS(=O)(=O)c4ccc5c(c4)OCCO5)cc3)cn12
  -0.73	·
CCOc1cccc(C2c3c(oc4ccccc4c3=O)C(=O)N2Cc2ccc3c(c2)OCO3)c1 (centres undefined)
  1.4	0.97
Fc1ccccc1-c1ccc(CNCCSc2nnnn2-c2ccccc2)o1
  -1.1	-1.6
O=C(NC1CCCC1)c1cnn2c3c(cnc12)CCCC3
  -0.11	·
CCOC(=O)c1c(NC(=O)c2nc(SC)ncc2Cl)sc2c1CCCC2
  -0.71	-3.2
CC(C)(C)c1cnnn1-c1ccc(NC(=O)c2cnc3n(c2=O)CCS3)cc1
  0.82	·
O=C(CCCc1nnc2n3nc(-c4ccccc4)nc3c3ccccc3n12)NCc1ccco1
  -0.26	-1.4
O=C1NC(c2ccc(Br)cc2)Oc2ccccc21 (centres undefined)
  ·	-1
CCCCNC(=O)c1c(O)c2cccc3c2n(c1=O)CC3
  3.4	·
Cc1cccc(CSc2ncc(CO)n2Cc2ccc(Cl)cc2)c1
  2	·
CCN1C(SCc2ccc(F)cc2)=NS(=O)(=O)c2ccccc21
  1.5	·

# Screening results deposited in PubChem by Center for Chemical Genomics, University of Michigan.

# Compounds were not picked by outcome; any-hit rate near 0.94%.
